Screens (PubChem BioAssay)
KCNQ2 inh: KCNQ2 potassium channel inhibitors, primary screen, cell-based, CHO-K1, FluxOR thallium flux, B-score (AID 2156); actives 1.1% (n = 310,000); Potassium voltage-gated channel subfamily KQT member 2 (Rattus norvegicus), O88943; 20 min; hits give low values; only compounds with negative scores are shown here; some inactives read as strong as hits; B-score at 10 µM;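 active = fluorescence ratio B-score at most minus 3 library SDs, with starting brightness B-score within 2 library SDs, cut at about -5.5 in these data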
Target sequence (O88943 whole entry, looked up): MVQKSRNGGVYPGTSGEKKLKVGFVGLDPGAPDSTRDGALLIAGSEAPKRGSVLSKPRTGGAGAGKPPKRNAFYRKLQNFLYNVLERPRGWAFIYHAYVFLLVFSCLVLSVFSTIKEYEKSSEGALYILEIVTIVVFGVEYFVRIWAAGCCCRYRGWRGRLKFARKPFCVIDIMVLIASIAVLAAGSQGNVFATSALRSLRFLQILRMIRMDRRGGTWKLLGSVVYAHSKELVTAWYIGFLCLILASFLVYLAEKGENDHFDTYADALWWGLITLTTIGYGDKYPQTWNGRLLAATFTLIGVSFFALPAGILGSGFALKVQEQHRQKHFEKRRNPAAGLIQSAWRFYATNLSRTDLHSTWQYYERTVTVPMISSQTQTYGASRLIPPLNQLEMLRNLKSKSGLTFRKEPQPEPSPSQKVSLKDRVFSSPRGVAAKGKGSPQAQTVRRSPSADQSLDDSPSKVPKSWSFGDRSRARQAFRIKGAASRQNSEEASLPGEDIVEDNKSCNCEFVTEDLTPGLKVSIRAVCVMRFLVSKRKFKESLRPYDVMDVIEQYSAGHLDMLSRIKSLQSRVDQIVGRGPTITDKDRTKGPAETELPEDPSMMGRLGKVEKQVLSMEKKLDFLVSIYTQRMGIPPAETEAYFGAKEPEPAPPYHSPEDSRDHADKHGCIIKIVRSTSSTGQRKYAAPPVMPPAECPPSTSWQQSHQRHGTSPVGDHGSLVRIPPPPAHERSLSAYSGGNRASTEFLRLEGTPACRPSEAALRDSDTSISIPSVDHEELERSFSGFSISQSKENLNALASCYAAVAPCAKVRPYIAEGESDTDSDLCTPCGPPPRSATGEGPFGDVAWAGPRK
KCNQ2 inh baseline: recorded beside KCNQ2 inh, whose call it bears; B-score; measured here: initial fluorescence intensity artifact check;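 brightness before thallium and not channel activity; 0 = typical well and far values either way flag optical interference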
* hit, by the source's call; i = inactive. Some of the compounds tested (hit frequency here may not be typical).

Under each structure – KCNQ2 inh, KCNQ2 inh baseline
CCc1nnc(NC(=O)c2nc3nccc(C)n3n2)s1
  i, -0.46
COc1ccc(CCNC(=O)c2ccc3ccccc3n2)cc1OC
  i, 0.79
Cc1cccc(N2CCN(C(=S)NC3CCCCC3)CC2)c1C
  i, 0.26
O=C(COC(=O)COc1ccccc1)NCc1ccco1
  i, 1.7
CC1=C(C(=O)c2ccccc2)C(c2cccc([N+](=O)[O-])c2)NC(=S)N1 (configuration not stated)
  i, -0.82
Cc1ccc(/C=C/c2onc(C)c2S(=O)(=O)N2CCC(C(=O)NC(C)(C)C)CC2)cc1
  i, -0.87
COc1ccc(N2CCN(C(=O)c3cc(-c4cc(OC)ccc4OC)nc4ccccc34)CC2)cc1
  i, 0.2
COC(=O)c1sc(N)c(C(=O)OC)c1COC(=O)CNS(=O)(=O)c1ccc(C)cc1
  i, -1.2
CCOC(=O)c1cnn(-c2sc(C(=O)OCC)c(C)c2C(=O)OCC)c1N
  i, -0.04
Cc1nc2cc(-c3sccc3-n3cccc3)nn2c(C)c1C
  i, -0.68
COc1ccc(-c2nc3n(c2C)CCC3)cc1
  i, 0.67
COc1ccc(CCN(C)C(=O)c2cc(-c3ccc(C)cc3)nc3ccccc23)cc1OC
  -6.7*, 0.16*
COc1cccc(NC(=O)CSc2ccc3nnc(-c4cccnc4)n3n2)c1
  i, 0.5
COC(=O)c1cc(C)sc1NC(=O)c1ccco1
  i, 0.76
COc1cccc(-n2c(=O)c3ccccc3n(CC(=O)NCC3CCCO3)c2=O)c1 (configuration not stated)
  i, 0.39

(continued)
Under each structure – KCNQ2 inh, KCNQ2 inh baseline
COC(=O)c1cccc(C23CC4(C2)[C@H](CN(Cc2ccc(-c5ccccc5)cc2)[C@@H]4c2ccccc2)C3c2ccc(Cl)nc2)c1 (some centres not stated)
  i, -0.22
Cc1cc(C)c2c(c1)-c1cc(C)nn1C(c1ccc3c(c1)OCO3)N2 (configuration not stated)
  i, 2.7
CC(C)=CCN1CCN(Cc2cccnc2)CC1CCO (configuration not stated)
  i, 0.59
Cc1cc(C)n2nc(C(=O)NC3CCCc4ccccc43)nc2n1 (configuration not stated)
  i, -0.11
CCn1c(CCNC(=O)c2ccc(OC)cc2)nnc1SCc1ccc(Cl)cc1Cl
  i, -1.5
CC(=O)Nc1cc(-n2cnnn2)ccc1C
  i, -0.83
O=C(O)CC1=C(Nc2ccccc2)C(=O)N(c2ccccc2)C1c1ccc(Br)cc1 (configuration not stated)
  i, 1.2
COc1ccc(N(CC(=O)NCCc2ccccc2)C(=O)c2csnn2)cc1OC
  i, -0.67
C/C(=N\NC(=O)c1ccc(N2CCCC2=O)cc1)c1ccccc1
  i, 0.71
Cc1ccc(NC(=O)Nc2ccc3c(c2)OCO3)nc1
  i, -0.12
O=C(COC(=O)C1CC1)NCc1ccccc1Cl
  i, 0.66
O=S(=O)(c1ccc(Cl)c(Cl)c1)N1CCc2nc3ccccc3n2CC1
  i, -0.01
Cc1ccc(N2CCN(S(=O)(=O)c3cccs3)CC2C)cc1 (configuration not stated)
  i, 1.1
C=CCOC(=O)C1=C(C)Nc2[nH]c(=O)[nH]c(=O)c2C1c1cccc(OC)c1 (configuration not stated)
  i, 0.09
Cc1ccc(S(=O)(=O)NC(CC(=O)N2CCc3ccccc32)c2ccco2)cc1 (configuration not stated)
  i, 1.8

New compounds follow:
Under each structure – KCNQ2 inh, KCNQ2 inh baseline
Oc1ccc(N2Cc3ccccc3C2)cc1
  i, 2
COCCCn1c(=O)c2sccc2n2c(CCCC(=O)NCc3ccc(OC)cc3)nnc12
  i, 1.4
COCCCNc1oc(/C=C/c2ccccc2)nc1C#N
  i, -0.04
COc1ccc(OC)c2c1sc(=NC(=O)c1ccco1)n2C
  i, -1.7
CCS(=O)(=O)NCCc1ccc(OC)c(OC)c1
  i, -2.2
COc1ccccc1N1CC(C(=O)OC(C)C(=O)N2CCCc3ccccc32)CC1=O (configuration not stated)
  i, -0.8
O=C(NCc1ccc2c(c1)OCO2)c1ccc(S(=O)(=O)NCC2CCCO2)cc1 (configuration not stated)
  i, -0.84
COc1ccccc1-c1nnc(NC(=O)CSc2nncn2C)s1
  i, 0.26
COc1ccc(Nc2nc(-c3ccccc3)nc3ccccc23)c(OC)c1
  i, -1.6
Clc1ccc(C[n+]2cc(-c3ccccc3)n3c2CCCCC3)c(Cl)c1
  i, -0.24
O=C(COn1nnc2ccc(C(F)(F)F)cc21)Nc1c(Cl)cccc1Cl
  i, -0.57
CCCCOC(=O)Nc1ccc(OC)cc1S(=O)(=O)N1CCOCC1
  i, 0.49
O=C(NCCC1CCCCN1S(=O)(=O)c1ccc(F)cc1)C(=O)NC1CCCC1 (configuration not stated)
  i, -0.1
CC(C)(C)C1CCC(=NNC(=O)C(=O)NCc2cccnc2)CC1 (configuration not stated)
  i, 0.24
CCN(CC(=O)Nc1c(F)cccc1F)C(=O)COc1ccc2c(c1)CCC2
  i, 0.13

Entries from the list above that have fluorine, in the order listed:
Under each structure – KCNQ2 inh, KCNQ2 inh baseline
O=C(COn1nnc2ccc(C(F)(F)F)cc21)Nc1c(Cl)cccc1Cl
  i, -0.57
O=C(NCCC1CCCCN1S(=O)(=O)c1ccc(F)cc1)C(=O)NC1CCCC1 (configuration not stated)
  i, -0.1
CCN(CC(=O)Nc1c(F)cccc1F)C(=O)COc1ccc2c(c1)CCC2
  i, 0.13

(further entries)
Under each structure – KCNQ2 inh, KCNQ2 inh baseline
C/C=C/C(=O)OCC(=O)Nc1ccc(F)cc1Cl
  i, -0.95
O=C(CSc1nncc2ccccc12)Nc1cccc(C(=O)O)c1
  i, 0.02
COc1cc(C=O)ccc1OCCCOc1ccc([N+](=O)[O-])cc1
  i, 0.17
O=C(N/N=C/c1ccc(Br)o1)/C(=C/c1ccc([N+](=O)[O-])cc1)NC(=O)c1ccccc1
  i, -1.8
CCC(=O)N1CCN(c2ccccc2NC(=O)Cc2ccc(Cl)cc2)CC1
  i, 0.68
O=C(COC(=O)CCC(=O)c1cccs1)Nc1ccc(Cl)cn1
  i, -0.45
Cc1cc(C)c(NC(=O)CSc2nc(=O)n3cc(C)ccc3n2)c(C)c1
  i, 0.22
C=CCn1c(O)c(C=Nc2ccc(Cc3ccncc3)cc2)c(=O)[nH]c1=S
  i, -0.01
CN(C)C(=O)c1cc(Br)ccc1Cl
  i, 0.26
O=C(c1cccs1)N1CCc2c([nH]c3ccccc23)C1c1ccccn1 (configuration not stated)
  i, -0.08
O=C(CSc1nnc(-c2cccnc2)o1)Nc1ccc(Br)cc1
  i, -2.4
CCCC(=O)OCC(=O)Nc1cc(Cl)ccc1[N+](=O)[O-]
  i, -0.09
N#C/C(=C\c1ccc(O)cc1)C(=O)NCc1ccccc1
  i, -0.74
Cc1ccn(-c2cccc(-n3ccc(C)n3)n2)n1
  i, 2.9
Cc1ccc(NC(=O)/C=C/c2ccco2)cc1S(=O)(=O)N1CCCCCC1
  i, -0.51

Filtered by structure: those above with an aryl thioether with sulfur outside any ring (six)
Under each structure – KCNQ2 inh, KCNQ2 inh baseline
COc1cccc(NC(=O)CSc2ccc3nnc(-c4cccnc4)n3n2)c1
  i, 0.5
CCn1c(CCNC(=O)c2ccc(OC)cc2)nnc1SCc1ccc(Cl)cc1Cl
  i, -1.5
COc1ccccc1-c1nnc(NC(=O)CSc2nncn2C)s1
  i, 0.26
O=C(CSc1nncc2ccccc12)Nc1cccc(C(=O)O)c1
  i, 0.02
Cc1cc(C)c(NC(=O)CSc2nc(=O)n3cc(C)ccc3n2)c(C)c1
  i, 0.22
O=C(CSc1nnc(-c2cccnc2)o1)Nc1ccc(Br)cc1
  i, -2.4

(continued)
Under each structure – KCNQ2 inh, KCNQ2 inh baseline
O=C(CSc1nnc2n1CCCCC2)Nc1ccc(N2CCOCC2)cc1
  i, 0.96
CN1C(=O)CC2(CC(=O)N(Cc3ccccc3)C2)C1=O (configuration not stated)
  i, 3
CC(O)Cn1c(N2CCCC2)nc2c1c(=O)[nH]c(=O)n2C (configuration not stated)
  i, 1.1
Cc1cccc(NC(=O)c2ccc(COc3ccc(Cl)cc3Cl)o2)n1
  i, 1.9
CCn1ncc(Br)c1C(=O)Nc1ccccc1OC
  i, 0.82
Cc1ccc(NC(=O)N2CCC(NC(=O)c3ccccc3C)CC2)cc1
  i, -0.87
Cc1cccc(N2CCN(C(=O)c3cc(S(=O)(=O)N(C)C)ccc3N3CCCC3)CC2)c1C
  i, -0.28
Cc1ccc(CNC(=O)COC(=O)c2ccc(Cl)c(N)c2)cc1
  i, -3.7
COC(=O)c1sc(C(C)(C)C)cc1CS(=O)(=O)c1ccccn1
  i, -0.02
CCOC(=O)COc1cc(O)c2c(=O)cc(-c3ccccc3)oc2c1
  i, -0.52
COc1ccc(S(=O)(=O)NC(C)C(=O)NCc2cccnc2)cc1C (configuration not stated)
  i, -0.57
CC(=NC1CCCCC1)C1=C(O)c2ccccc2C1=O
  i, 0.68
CC(C)N(C(=O)c1nn(C)c2c1CSc1ccccc1-2)C1CCCCC1
  -8.7*, -0.6*
C(=N\N=C\c1cccnc1)/c1cccnc1
  i, -0.6
Cc1ccc(NC(=O)c2nc[nH]c2C(=O)N[C@@H](C)C(=O)OC(C)(C)C)cc1
  i, 0.27

Following part
Under each structure – KCNQ2 inh, KCNQ2 inh baseline
CCN(Cc1nc(-c2ccccc2)no1)C(=O)COc1cccc(OC)c1
  i, -1.6
O=[N+]([O-])c1ccccc1/C=N/Nc1nnc(-c2ccccc2)c(-c2ccccc2)n1
  i, 0.77
O=C(Nc1ccnn1C1CCN(C(=O)c2c(F)cccc2F)CC1)C1CC1
  i, -0.53
COc1ccccc1-c1nnc(SC(C)C(=O)Nc2ccc(C(N)=O)cc2)o1 (configuration not stated)
  i, -0.18
Cc1ccc(S(=O)(=O)/N=C(\Nc2cc(C)on2)c2ccc(Cl)cc2)cc1
  i, 0.34
Cc1nc2cc(S(=O)(=O)N(C)C)ccc2n1-c1ccccc1
  i, 1.6
CCC1CCCCN1C(=O)CN1C(=O)CSC1=O (configuration not stated)
  i, 0.41
CCC(C)NC(=O)CCS(=O)(=O)c1ccc(Br)s1 (configuration not stated)
  i, 1.7
Cc1ccc(OCc2ccc(-c3ccccc3)cc2)c([N+](=O)[O-])n1
  i, -0.01
COC(=O)CNC(=O)c1c(-c2ccccc2Cl)noc1C
  i, -2
O=C(Nc1ccc(CN2CCOCC2)cc1)c1cccc(-c2cc3ccccc3oc2=O)c1
  i, 0.02
CCOc1ccc(/C=N/OCC(=O)NCc2ccc3c(c2)OCO3)cc1OC
  i, 0.43
COc1ccc2cc(C#N)c(SCC(=O)NNC(=O)Cc3ccccc3)nc2c1
  -6.2*, -2*
COc1cc(-c2c(-c3ccc4c(c3)OCO4)noc2-c2ccsc2)ccc1F
  i, 0.05
CCCOc1ccc(/C=c2\sc3nc(-c4ccco4)nn3c2=O)cc1OCC
  i, -1.4

New compounds follow:
Under each structure – KCNQ2 inh, KCNQ2 inh baseline
Cc1ccccc1OCC(=O)Nc1ccc(C(=O)Nc2ccccc2C(=O)O)cc1
  i, 0.21
CCCC(=O)n1nc(-c2ccc(OC)cc2)nc1N
  i, 0.35
COc1ccc(C)cc1NC(=O)n1ncc2c(C)cccc21
  i, 1.1
CC(C)Cn1c(SCc2nc3ccccc3c(=O)[nH]2)nc2ccccc2c1=O
  i, 0.02
Cc1n[nH]c(=S)n(NC(=O)CC(=O)Nn2c(=S)[nH]nc(C)c2=O)c1=O
  i, 1.9
[N-]=[N+]=CC(=O)C(c1ccccc1)(c1ccccc1)c1ccccc1
  i, 0.82
Cc1cccc(-c2nnc(SCC(=O)N3CCCC3)o2)c1
  i, 0.45
CCCc1nc2ccccc2c(C(=O)OCC(=O)Nc2cccc(S(=O)(=O)N3CCOCC3)c2)c1CC
  i, 0.96
COc1cccc(NC(=O)[C@@H]2CCCN2C(=O)[C@@H]2Cc3ccccc3CN2C(=O)OC(C)(C)C)c1
  i, 1.1
C=CCN1C=C2C(=O)C(C)(OC(=O)c3ccco3)C(=O)C(C=C)=C2C=C1C1CC1 (configuration not stated)
  i, 3.3
COc1ccc(OC)c(S(=O)(=O)NCCCc2ccccc2)c1
  i, -0.13
Cc1cccn2c(=O)c(/C=C(\C#N)C(=O)NCc3ccco3)c(N3CCCCC3)nc12
  i, -0.67
O=C(COC(=O)c1cccc(C(=O)OCC(=O)NC2CCCCC2)n1)NC1CCCCC1
  i, 0.04
COc1cccc2sc(N(CCCN(C)C)C(=O)c3ccc(S(=O)(=O)N4CCCc5ccccc54)cc3)nc12
  i, 0.65
O=c1c2c(nc3cc(-c4ccc(Cl)cc4)[nH]n13)CCS2
  i, 1.4

Continuation.
Under each structure – KCNQ2 inh, KCNQ2 inh baseline
OCCN1CCN(c2nc(NCc3ccco3)c3ccccc3n2)CC1
  i, 0.37
CCc1sc(C(=O)Nc2ccccc2N2CCOCC2)cc1C
  -7.3*, 0.02*
COc1ccccc1C(=O)Nc1ccnn1C1CCN(Cc2cc(C)c(C)cc2C)CC1
  i, 0.02
Cc1ccc(C(=O)N/C(=C\c2cccs2)C(=O)NC2CCCCC2)cc1
  i, 0.27
C/C(=N\NC(=O)CC1N=C(Cc2ccccc2)NNC1=O)c1ccc(Br)cc1 (configuration not stated)
  i, 0.7
CS(=O)(=O)N(CCc1ccccc1)CC(=O)NCc1ccccc1
  i, 2
N#Cc1ccc(-c2csc(-c3ccno3)n2)cc1
  i, -0.81
O=C(c1nn2c(C(F)(F)F)cc(-c3cccs3)nc2c1Br)N1CCCc2ccccc21
  i, 0.72
O=C(c1cn(CC(=O)N2CCCCC2)c2ccccc12)C1CC1
  i, -0.67
COc1ccc(/C=N/Nc2nc(-c3cccc(S(=O)(=O)N4CCCC4)c3)cs2)c(OC)c1
  i, 0.05
Cc1ccc(-n2nc3c(=O)n(CC(=O)NCc4ccccn4)nc(C)c3c2C)cc1
  i, -0.36
CCN(CC)C(=O)CSc1nc2ncc(Cl)cc2[nH]1
  i, -0.3
CCc1cc(/C(Cc2ccc3ccccc3n2)=N\O)c(O)cc1O
  -12*, 2.4*
COc1cc(CC(=O)OCC(=O)c2ccc3c(c2)OCCO3)cc(OC)c1OC
  i, -1.5
